# TRPML1 inh = inhibitors of human TRPML1 channel; TRPML1-inducible cells, Ca2+ dye fluorescence, FDSS; hits give low values; inhibition of EC80 agonist-evoked calcium signal; AID 624415; activity change, negative = inhibition, % (test concentration not listed); hit rate 0.02% among 390,000; in the data active means activity change below about -50%; inconclusive means about -30% to -50%; inactive means above about -30%;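 note: stimulus is agonist 54-4 at its EC80 concentration; % is set by controls: 0 for no effect and ±100 for the full control effect; compound concentration not given in the record; the text of the record puts the active cut at -80%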
# Target sequence (Q9GZU1 whole entry, looked up): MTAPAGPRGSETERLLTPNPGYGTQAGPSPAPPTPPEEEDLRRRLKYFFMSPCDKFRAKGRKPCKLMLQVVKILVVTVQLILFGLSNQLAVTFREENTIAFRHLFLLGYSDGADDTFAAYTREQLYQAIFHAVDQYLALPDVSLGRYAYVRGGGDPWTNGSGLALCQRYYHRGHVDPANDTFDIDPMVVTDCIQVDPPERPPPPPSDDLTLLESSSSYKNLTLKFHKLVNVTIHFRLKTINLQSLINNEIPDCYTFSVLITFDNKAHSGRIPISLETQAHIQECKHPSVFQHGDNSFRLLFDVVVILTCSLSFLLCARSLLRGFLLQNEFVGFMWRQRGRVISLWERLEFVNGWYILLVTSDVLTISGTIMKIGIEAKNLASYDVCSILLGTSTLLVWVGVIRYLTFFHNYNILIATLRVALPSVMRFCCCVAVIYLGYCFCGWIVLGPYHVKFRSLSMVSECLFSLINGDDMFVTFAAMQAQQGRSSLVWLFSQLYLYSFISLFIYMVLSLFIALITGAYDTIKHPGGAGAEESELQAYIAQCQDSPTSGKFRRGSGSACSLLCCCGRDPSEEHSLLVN
#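 Tet-induced TRPML1-DL cells loaded with Ca8 no-wash calcium dye were read kinetically on FDSS. Compound addition was followed by EC80 agonist 54-4 (4 uM final); inhibition was read over 110 s.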
# TRPML1 ag = activates the human TRPML1 channel; TRPML1-expressing cells, Ca2+ dye fluorescence, FDSS; host cell line not named in the record; reference of the full effect not given here; activation, % (test concentration not listed); hit rate 0.12% among 410,000; AID 624414; in the data active = activation above about 50%; inconclusive = about 30% to 50%; inactive = below about 30%; note: 0% is about no effect; the text of the record puts the active cut at 80%
#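 Kinetic FDSS Ca2+ read in Tet-induced TRPML1-DL cells (ABD Ca8 dye plus quencher, 45-90 min RT loading): baseline, then compound, then 110 s agonist window; EC80 agonist 54-4 at 4uM final added afterwards for a 110 s antagonist window.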
# CtBP-E1A blk = blocks the CtBP interaction with E1A; AlphaScreen GST-E1A/His-CtBP binding, 1536-well; hits give low values; control for the full effect not named in the record; activity change, % (test concentration not listed); hit rate 0.49% among 340,000; in the data active means activity change below about -65%; inconclusive means about -30% to -65%; inactive means above about -30%; note: % is set by controls: 0 for no effect and ±100 for the full control effect; compound concentration not given in the record
#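 Protein mix (5X: 125 nM each GST-E1A, His-CtBP) was incubated with pinned compound 2 h at 37 deg C in dark, in 50 mM Tris pH 8.0 buffer with 300 mM NaCl. Glutathione donor and nickel acceptor beads followed; AlphaScreen signal read after 1 h.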
# Six1-Eya2 inh = Six1/Eya2 interaction inhibition. AID 651725. Q15475+O00167. activity change, % (test concentration not listed). AlphaScreen GST-Six1/His-Eya2 binding, biochemical; hits give low values; control for the full effect not named in the record. hit rate 0.56% among 360,000; in the data active = activity change below about -65%; inconclusive = about -30% to -65%; inactive = above about -30%; note: % is set by controls: 0 for no effect and ±100 for the full control effect; compound concentration not given in the record
#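 Six1/Eya2 binding was read as AlphaScreen signal after compounds were pinned into GST-Six1 plus His-tagged Eya2 (5X stock 250/500 nM) in pH 8.0 Tris/NaCl/TCEP buffer, beads added, then incubated 1 h, 37 C, dark.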
# PINK1 expr mod = PINK1 expression modulation. hit rate 0.2% among 410,000. PINK1 immunofluorescence, high-content cytometry, 24 h. Potency, µM (highest dose often 76.6 µM), for inactives: top-dose activation (PINK1 increase), most hits filed as activators; active = well fitted activation curve with a large enough effect; inconclusive = small, poorly fitted or top-dose-only effect; inactive = flat fitted curve, though single readings scatter; cell line not stated here;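 note: potency is the fitted concentration of half-maximal effect; % of control where 0% means no effect; nearly all actives have a fitted effect of over 65% in size; a mitochondrial uncoupler was the plate control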
#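 PINK1 protein level read as immunofluorescence by microplate cytometer in a fixed, stained stable cell line after 24 h exposure to five compound concentrations, with CCCP as control.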
# D2 ag = activates the human D2 dopamine receptor. DiscoveRx PathHunter D2 beta-arrestin, luminescence, 90 min; 100% = 57 uM dopamine signal. hit rate 0.084% among 360,000. activation, % (no concentration beside the values). AID 624465; in the data active = activation above about 40%; inconclusive = about 15% to 40%; inactive = below about 15%; note: compound concentration not given in the record; the text of the record calls up to 30% inactive
# Target sequence (P14416 whole entry, looked up): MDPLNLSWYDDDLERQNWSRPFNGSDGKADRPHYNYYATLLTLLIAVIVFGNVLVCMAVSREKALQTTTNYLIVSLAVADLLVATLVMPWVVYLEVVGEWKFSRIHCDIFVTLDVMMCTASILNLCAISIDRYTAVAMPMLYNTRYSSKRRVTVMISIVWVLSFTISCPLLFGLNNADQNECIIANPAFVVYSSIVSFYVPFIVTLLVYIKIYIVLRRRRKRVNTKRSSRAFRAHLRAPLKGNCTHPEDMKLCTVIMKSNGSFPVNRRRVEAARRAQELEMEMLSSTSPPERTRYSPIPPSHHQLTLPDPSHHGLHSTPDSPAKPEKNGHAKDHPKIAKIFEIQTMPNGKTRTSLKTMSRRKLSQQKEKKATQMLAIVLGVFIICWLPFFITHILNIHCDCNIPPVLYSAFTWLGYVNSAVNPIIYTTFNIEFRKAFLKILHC
#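 Agonist mode: compounds alone added to overnight-plated D2 PathHunter cells for 90 min at 37 C, with 57 uM final dopamine (EC100) defining full response. Beta-arrestin recruitment detected by chemiluminescent reagent, read after 1 h at ambient temperature.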
# Starred values were filed as active, the others as inactive; ? = inconclusive; nt = not tested or not shown; & = joins results of further samples; [ ] = another dose, or the depositor's remark.
SMILES,TRPML1 inh,TRPML1 ag,CtBP-E1A blk,Six1-Eya2 inh,PINK1 expr mod,D2 ag
CCc1ccc(NC(=O)C/C(C)=N/NC(=O)COc2ccccc2C)cc1,29,0.0,-1,4,-0.8%,-4.7
Brc1ccc(C2CC(c3ccccc3)=Nc3ccccc3N2)cc1 (stereo unspecified),11,1.0,2,-2,2.0%,0.9
CCN(CC)S(=O)(=O)c1ccc2c(c1)N(CC(=O)Nc1ccc(C)cc1C)C(=O)C1CCCN21 (stereo unspecified),29,0.7,nt,nt,-0.3%,nt
CC(Sc1nc(-c2ccccc2)cc(=O)[nH]1)C(=O)O (stereo unspecified),30,-0.1,-2,7,0.6%[38.3 µM],-1.5
Cc1nc(N2CCCC2)ncc1C(=O)NCc1ccc(Cl)cc1,-10,2.4,nt,nt,4.9%,nt
COc1ccc(NS(=O)(=O)c2cnc[nH]2)cc1,1,-0.5,-14,-2,2.0%,2.4
CCOc1ccc(S(=O)(=O)N(C)c2ccc(OCC(=O)N3CCOCC3)cc2)cc1,-8,0.4,-14,4,-2.4%,-2.0
CC1CCN(S(=O)(=O)c2cccc(C(=O)NNC(=O)c3ccco3)c2)CC1,26,0.3,1,6,-0.1%,-5.2
CCC(C)NC(=O)C1CCC(CNS(=O)(=O)c2cccc3nsnc23)CC1 (stereo unspecified),8&26,-0.2&-1.0,-3,1,-0.3%&1.0%,-9.1
O=C(O)c1sccc1SCc1ccc(Cl)cc1Cl,-10,0.4,1,6,0.6%,-2.2
O=C1OCC2=C1C(c1ccc3c(c1)OCO3)Sc1ccccc1N2 (stereo unspecified),4,0.2,4,-1,0.0%,0.9
CC1(C)Cc2c(c(-c3ccco3)[nH]c(=O)c2C#N)CS1,13,0.1,-1,3,-1.9%,-3.7
COc1cc(C2C(C(=O)c3ccco3)=C(O)C(=O)N2CC2CCCO2)ccc1O (stereo unspecified),-7,-1.1,0,2,1.4%,0.6
O=C(NCC1CCCO1)c1ccc2c(c1)N(Cc1ccccc1)C(=O)CS2=O (stereo unspecified),8,0.2,3,-1,0.3%,-0.7
CC1=NNC(=O)C1Cc1ccccc1C (stereo unspecified),-7,0.7,-1,3,-1.0%,-1.6
Cc1ccccc1-c1nn2c(=O)cc(CN3CCN(C(=O)/C=C/c4ccccc4)CC3)nc2s1,-14,0.2,nt,nt,-1.0%,nt
O=C(CCN1C(=O)c2ccccc2S1(=O)=O)N1CCN(c2ccc(F)cc2)CC1,1,0.9,-14,-3,0.2%,-5.6
O=C(Nc1ccccc1Sc1ccccc1)c1ccccc1F,16,-0.1,56,66,0.5%,-4.7
CCOC(=O)c1cnc(-n2nc(C)cc2C)nc1NCCc1ccccc1,5,0.1,?,-8,28%,-4.0
Cc1ccc(S(=O)(=O)NCC(=O)NCc2cc(=O)n(C)c(=O)n2C)cc1C,11,0.6,nt,13,0.4%,1.6
O=C(NCCCCCCNC(=O)c1cccs1)c1cccs1,-15,-0.3,3,-2,2.6%,0.3
COc1ccccc1NC(=O)C1=C(C)Nc2nc(SCc3ccccc3F)nn2C1c1cccnc1 (stereo unspecified),0,-0.4,nt,nt,2.5%,nt
Cc1nnc(C)n1-c1ccc(C(=O)Nc2cccc(Br)c2)cc1,-8,-0.6,nt,nt,1.7%,nt
Cn1c2ccccc2c(=O)c2cc(NCCCN3CCOCC3)ccc21,-6,-0.5,-24,-17,0.0%,-0.6
CCn1cnc2cc([N+](=O)[O-])ccc21,-6,-0.5,0,2,-1.6%,1.8

# Given as labelled records: part of the list above
> CC1(C)Cc2c(c(-c3ccco3)[nH]c(=O)c2C#N)CS1
  TRPML1 inh = 13	TRPML1 ag = 0.1	CtBP-E1A blk = -1	Six1-Eya2 inh = 3	PINK1 expr mod = -1.9%	D2 ag = -3.7

> COc1cc(C2C(C(=O)c3ccco3)=C(O)C(=O)N2CC2CCCO2)ccc1O (stereo unspecified)
  TRPML1 inh = -7	TRPML1 ag = -1.1	CtBP-E1A blk = 0	Six1-Eya2 inh = 2	PINK1 expr mod = 1.4%	D2 ag = 0.6

> O=C(NCC1CCCO1)c1ccc2c(c1)N(Cc1ccccc1)C(=O)CS2=O (stereo unspecified)
  TRPML1 inh = 8	TRPML1 ag = 0.2	CtBP-E1A blk = 3	Six1-Eya2 inh = -1	PINK1 expr mod = 0.3%	D2 ag = -0.7

> CC1=NNC(=O)C1Cc1ccccc1C (stereo unspecified)
  TRPML1 inh = -7	TRPML1 ag = 0.7	CtBP-E1A blk = -1	Six1-Eya2 inh = 3	PINK1 expr mod = -1.0%	D2 ag = -1.6

# Additional results
SMILES,TRPML1 inh,TRPML1 ag,CtBP-E1A blk,Six1-Eya2 inh,PINK1 expr mod,D2 ag
Cc1cc(C)c(S(=O)(=O)Oc2ccccc2[N+](=O)[O-])c(C)c1,-1,19,1,-12,13%,-2.8
Cc1ccc(S(=O)(=O)NCCOc2nc(N(C)C)nc(N3CCOCC3)n2)cc1,28,0.0,-8,-22,-1.0%,-0.2
COC(=O)c1c(NC(=O)c2cc3ccccc3c(=O)o2)sc2c1CCCC2,1,3.9,nt,nt,-0.6%,nt
Cc1ccc(C)c(-n2c(CNC(=O)c3ccco3)nnc2SCC(=O)Nc2nnc(C)s2)c1,-9,0.5,4,1,2.3%,-5.7
CCCCSc1nc(C)c(CC(=O)OC)c(=O)[nH]1,21,1.4,3,-3,-1.0%,-4.2
COCCSc1ccccc1C(=O)NCCCn1ccnc1,-15,0.1,5,-1,2.3%[38.3 µM],-0.6
COc1ccc(CCNC(=O)Cn2c(=O)n(-c3ccc(C)c(C)c3)c(=O)c3c(C)c(C)sc32)cc1OC,-14,0.2,nt,nt,0.4%,nt
CCOc1ccc(CC(=O)Nc2c(C(=O)c3ccccc3)oc3ccc(Cl)cc23)cc1OCC,-18,-0.4,nt,nt,0.3%,nt
O=C(NNC(=S)Nc1ccc(F)cc1)c1cccc([N+](=O)[O-])c1,1,0.0,-13,10,-0.8%,-8.6
COC(CNC(=O)CCc1c(C)nc2c(c(C)nn2-c2ccc(C)cc2)c1C)OC,nt,nt,0,-1,2.3%,-7.2
COc1ccc(OCc2nc(-c3ccc(-n4cccc4)cc3)no2)cc1,-13,0.7,nt,nt,3.3%,nt
Cc1c(Cl)cccc1NC(=S)N1CCCN(Cc2ccc(F)cc2)C1,3,-0.3,-15,1,4.5%,-1.0
COC(=O)c1c(SCC(=O)Nc2cc(F)ccc2F)[nH]c2ccc(C)cc2c1=O,1,-0.5,nt,nt,?,nt
COc1cccc(CN(C(=O)CN2C(=O)c3ccccc3S2(=O)=O)C(C(=O)NCC2CCCO2)c2ccco2)c1 (stereo unspecified),8,1.9,3,-13,0.9%,3.2
Cn1c2c(c3cc([N+](=O)[O-])ccc31)CCCC2,0,-0.5,1,26,0.8%,-1.7
C=CCN(c1ccccc1)S(=O)(=O)c1cccc(C(=O)O)c1,-9,-0.4,7,0,-0.9%,-1.3
O=C(NCCc1ccccc1)C(NS(=O)(=O)c1cccc2nsnc12)c1ccccc1 (stereo unspecified),-1,1.6,0,2,0.7%,-6.2
CC(C)(C)c1cc(C(=O)O)n[nH]1,-11,1.0,6,6,-0.9%[38.3 µM],2.2
COc1ccccc1CC(=O)N1CCN(c2ccc(F)cc2)CC1,-16,-0.7,2,-5,0.5%,2.1
O=C1NC(=Nc2ccc(Cl)cc2)SC1Cc1cccc(Cl)c1Cl (stereo unspecified),-13,-0.4,3,0,0.2%,-0.1
COc1ccc(-c2cn3c(C)c(C(=O)Nc4cc(C)cc(C)c4)sc3n2)cc1,40,1.6,nt,nt,4.8%,nt
Cc1c(C(=O)N2CCN(C)CC2)oc2ccc(Br)cc12,0,0.4,-6,1,-1.4%,-6.5
O=C(CN1C(=O)CCC1=O)Nc1nc(-c2nc3ccccc3s2)cs1,-11,-0.6,1,-6,1.5%,-0.2
CC1(C)OC(=O)C=C[C@]2(C)[C@H]3CC[C@@]4(C)[C@H](c5ccoc5)OC(=O)[C@H]5O[C@]54[C@]3(C)C(=O)C[C@@H]12,18,1.0,4,7,0.1%,-0.9
Cn1cc(Br)c(C(=O)NC2CCCCC2)n1,21,1.6,1,-3,-2.1%,-1.0
SMILES,TRPML1 inh,TRPML1 ag,CtBP-E1A blk,Six1-Eya2 inh,PINK1 expr mod,D2 ag
CCN(CC)c1ccc(C(=O)OCC(=O)Nc2cc(C)on2)cc1,7,1.4,nt,-1,1.2%,7.7
O=C(NCCc1cccs1)c1ccc(Cn2c(SCc3cccc(F)c3)nc3cccnc32)cc1,10,-0.3,nt,nt,-0.9%,nt
CCOc1ccc(S(=O)(=O)N2CCN(c3ccc(C)cc3C)CC2)cc1,-15,0.1,8,-2,-0.1%,-1.4
COC(=O)c1sccc1NC(=O)CCC1CCCC1,-9,1.0,32,37,1.5%,-1.5
O=C1COc2ccc(C(=O)COC(=O)/C=C/c3ccco3)cc2N1,-17,-0.8,nt,-8,2.5%,-3.7
CC(=O)c1ccc(S(=O)(=O)NCCC(=O)NC(C)c2ccncc2)cc1 (stereo unspecified),-6,-0.1,nt,7,0.5%,-1.7

# In a second layout: entries from further up.
CCN(CC)c1ccc(C(=O)OCC(=O)Nc2cc(C)on2)cc1
- TRPML1 inh = 7
- TRPML1 ag = 1.4
- CtBP-E1A blk = nt
- Six1-Eya2 inh = -1
- PINK1 expr mod = 1.2%
- D2 ag = 7.7
O=C(NCCc1cccs1)c1ccc(Cn2c(SCc3cccc(F)c3)nc3cccnc32)cc1
- TRPML1 inh = 10
- TRPML1 ag = -0.3
- CtBP-E1A blk = nt
- Six1-Eya2 inh = nt
- PINK1 expr mod = -0.9%
- D2 ag = nt
CCOc1ccc(S(=O)(=O)N2CCN(c3ccc(C)cc3C)CC2)cc1
- TRPML1 inh = -15
- TRPML1 ag = 0.1
- CtBP-E1A blk = 8
- Six1-Eya2 inh = -2
- PINK1 expr mod = -0.1%
- D2 ag = -1.4
COC(=O)c1sccc1NC(=O)CCC1CCCC1
- TRPML1 inh = -9
- TRPML1 ag = 1.0
- CtBP-E1A blk = 32
- Six1-Eya2 inh = 37
- PINK1 expr mod = 1.5%
- D2 ag = -1.5

# High-throughput results deposited in PubChem BioAssay by National Center for Advancing Translational Sciences (NCATS).

# The order is random (roughly 1% active in at least one column).
